# E coli growth – E. coli growth inhibition. Escherichia coli growth, OD600, 23 h; stronger effect = lower value. 330,000 compounds, 0.21% hits. OD600 absorbance (test concentration not listed);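 active means OD600 absorbance below the run mean of sample wells minus 3.6 SD, in any replicate, cut at about 0.56 in these data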;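 further: stock transfer was 300 nL into about 60 µL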
# HNF4A DNA FP – change in binding of human HNF4 alpha to DNA | P41235 | HNF4a-FITC DNA binding, fluorescence polarization, 1 h | activity change, % at 10 µM | 360,000 compounds, 0.3% hits; in the data active means activity change above about 30%, passing the limit was not always enough;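 further: controls were the assay level and a saturating level of protein; the project sought stronger binding though the title names inhibitors; some compounds called inactive have numbers as strong as hits; positive values seem to mean higher polarization but the record does not say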
# ALR H2O2 inh – inhibitors of human sulfhydryl oxidase ALR; P55789; purified ALR, DTT oxidation, H2O2 HRP-luminol luminescence; inhibition, % (concentration not given with the values); 290,000 compounds, 3.8% hits; AID 485317;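 active means mean and each replicate at 75% or more; inconclusive means only one of the two met; inactive means neither met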;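 further: stock transfer was 7.5 nL into about 7.5 µL; 0% = neutral wells and 100% = wells with inactivated enzyme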
# Target sequence (P55789 whole entry, looked up): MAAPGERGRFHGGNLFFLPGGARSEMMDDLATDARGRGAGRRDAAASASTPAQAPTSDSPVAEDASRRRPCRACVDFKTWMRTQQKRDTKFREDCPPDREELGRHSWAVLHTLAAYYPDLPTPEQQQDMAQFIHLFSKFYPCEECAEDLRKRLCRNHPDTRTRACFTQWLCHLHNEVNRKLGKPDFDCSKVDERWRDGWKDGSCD
# Beta2AR agonist – activates human beta-2 adrenergic receptor causing internalization | Am2.2-beta2AR cells, FAP receptor internalization, flow cytometry; reference of the scale not given here | P07550 | response, % (concentration not given with the values) | AID 504454 | 340,000 compounds, 0.43% hits;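 active means response above a set limit, near 3 SD of response in nonfluorescent compounds, cut at about 42% in these data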;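 further: stock transfer was 100 nL into about 11 µL; a reference agonist was the positive control; negative values mostly stem from fluorescent compounds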
# LANA-H2B inh – blocks KSHV LANA binding to histone H2A/H2B; Q9QR71; cell-free LANA-H2A/H2B peptide, fluorescence polarization; inhibition, % (test concentration not listed); 320,000 compounds, 0.6% hits; in the data active means inhibition mostly above about 10%, no sharp cut-off; inactive means mostly below about 6.7%;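 further: stock transfer was 7.5 nL into about 10 µL; 0% = median of vehicle wells and 100% = median of positive control wells; one replicate is shown; the record names a cut of 25% in any replicate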
# UCH37 inh – inhibitors of human deubiquitinating enzyme UCH37; AID 588478; inhibition, % (test concentration not listed); purified proteasome/UCH37, Ub-AMC cleavage fluorescence; 330,000 compounds, 0.33% hits;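 active means mean of two replicates above 20%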;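 further: 0% = compound-free wells with enzyme and 100% = wells lacking proteasome; stock transfer was 100 nL into about 20 µL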
# Target sequence (Q9Y5K5 whole entry, looked up): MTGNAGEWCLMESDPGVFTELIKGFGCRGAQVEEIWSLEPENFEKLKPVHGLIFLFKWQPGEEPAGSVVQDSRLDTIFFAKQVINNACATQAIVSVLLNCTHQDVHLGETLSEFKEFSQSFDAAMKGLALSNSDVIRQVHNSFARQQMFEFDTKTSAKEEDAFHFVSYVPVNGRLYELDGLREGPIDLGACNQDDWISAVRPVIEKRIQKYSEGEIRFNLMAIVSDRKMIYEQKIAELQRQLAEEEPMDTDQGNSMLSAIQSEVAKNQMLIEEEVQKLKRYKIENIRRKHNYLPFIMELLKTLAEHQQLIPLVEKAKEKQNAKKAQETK
#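 system = Proteasome-associated human UCH37 deubiquitinase | amount = 0.15 nM proteasome as dispensed | medium = pH 7.4 Tris-HCl (50 mM) with ovalbumin, ATP-MgCl2, DTT | incubation = 30 min preincubation with enzyme, 25 min cleavage at room temperature | detection = AMC fluorescence 355/460 nm | read-out basis = percent inhibition | controls = no-proteasome and no-compound wells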
# FGF22 binding – FGF22 (human) thermal shift binding; recombinant FGF22 thermal shift, SYPRO orange fluorescence; percent of sucrose octasulfate shift, DMSO zero; calls only at 9.99 µM; 340,000 compounds, 1.5% hits;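 active means melting point raised past a set limit in the mean and every replicate; inconclusive means no clear call; three in four hits are not shown here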
# Target sequence (Q9HCT0 whole entry, looked up): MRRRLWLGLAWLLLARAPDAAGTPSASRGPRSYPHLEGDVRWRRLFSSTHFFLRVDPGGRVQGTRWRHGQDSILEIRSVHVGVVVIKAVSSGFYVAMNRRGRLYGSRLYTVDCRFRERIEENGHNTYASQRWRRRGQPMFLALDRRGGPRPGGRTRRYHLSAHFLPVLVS
# * = called active by the depositor; i = inactive; u = inconclusive; x = no result given. A portion of the library; count on the stated rates, not on these rows.
SMILES,E coli growth,HNF4A DNA FP,ALR H2O2 inh,Beta2AR agonist,LANA-H2B inh,UCH37 inh,FGF22 binding
COc1ccc(NC(=O)CN2CCC(C(=O)c3ccc(C)cc3)CC2)c(OC)c1,0.659,-0.6,0.2,0.9,0.4,1.2,i
CN(C)CC/C=C1\c2ccccc2Sc2cc(F)c(Cl)cc21,0.657,2.3,-6.8,9.2,-1.3,6.9,i
CCOC(=O)C1CCN(C(=O)c2ccc(C)c(S(=O)(=O)N3CCCC3)c2)CC1,0.684,-1.9,-26.2,13.9,3.6,0.7,i
COc1cc(/C=C/c2sc3ccccc3[n+]2CCCS(=O)(=O)[O-])ccc1O,0.736,86.7*,98.7*,-10.1,-37.6,5.1,i
CCN(CC)S(=O)(=O)c1cccc(NC(=O)c2cc(-c3cccs3)nn2-c2ccccc2)c1,x,-3.5,1.4,3.3,-7.1,10.1,x
O=S(=O)(c1ccccc1)C1(S(=O)(=O)c2ccccc2)CCCC1,0.722,-1.2,-13.8,5.6,0.3,-0.5,x
COCCn1c(C)cc(C(=O)CSc2n[nH]c(N)n2)c1C,0.686,2.0,51.5,8.2,8.9,-0.1,x
Cc1cccc(C)c1NC(=O)CN1CCN(CC(=O)NCC2(N3CCCCC3)CCCCC2)CC1,0.673,2.5,x,9.1,2.3,2.3,i
Cc1ccc2cc(C(c3nnnn3Cc3ccccc3)N3CCN(c4ccccc4)CC3)c(=O)[nH]c2c1 (stereo unspecified),0.743,0.2,-32.5,5.8,-2.4,-0.7,x
Cc1ccc(NC(=O)N2CCCC2C(=O)NCc2ccccc2Cl)cc1 (stereo unspecified),0.681,2.7,-8.2,-8.1,5.9,0.1,i
O=C(C1CC1)N1CCc2[nH]c3ccccc3c2C1,0.686,-3.1,x,-2.1,-6.3,-7.0,x
O=C1NN(c2ccccc2)C(=O)/C1=C\c1ccc2c(c1)OCO2,0.601,5.8,47.9,7.9,2.8,7.6,i
COc1ccc(C2CC(C(F)(F)F)n3nc(C(=O)NCCN4CCOCC4)cc3N2)cc1 (stereo unspecified),0.678,1.2,x,1.4,-3.9,1.2,x
O=C(CN1C(=O)c2ccccc2C1=O)Nc1cc(C(=O)O)cc(C(=O)O)c1,0.658,-5.5,-27.5,0.3,3.7,3.4,i
C/C(=N\OC(=O)c1cccc(C(F)(F)F)c1)c1sc(-c2ccccc2)nc1C,x,2.5,-2.3,7.1,-2.9,x,x
COc1cc(OC)c(OC)cc1/C=C1\CCC(C2CCCC2)C1=O (stereo unspecified),0.684,1.8,-15.1,5.2,-2.3,-0.7,i
Cc1ccc(/C=C/C(=O)OCC(=O)NC(C)C)o1,0.667,13.1,-0.8,3.2,2.7,9.3,x
CN(CC(=O)Nc1ccc2c(c1)OCO2)S(=O)(=O)c1ccc(F)cc1,0.678,2.7,-3.5,9.2,-2.4,-1.6,i
Cc1cccc(N2CCN(C(=O)c3ccccc3NC(=O)C3=CSCCO3)CC2C)c1 (stereo unspecified),0.669,0.4,45.1,-4.5,-2.0,-1.7,i
O=S(=O)(c1cccc2cccnc12)N1CCCCC1,x,2.8,-7.0,-3.5,-3.1,x,i
Cc1cc(C)n(-c2nc(NC(C)(C)C)nc(NC(C)(C)C)n2)n1,0.796,1.8,x,-2.2,-3.9,6.3,x
O=C(CCc1ccccc1)Nc1cc2c3c(c1)CCC(=O)N3CCC2,0.66,2.7,-3.3,-1.3,5.4,3.5,i
CCC(C)N(C(=O)c1csnn1)C(C(=O)NC(C)(C)C)c1ccccc1 (stereo unspecified),0.743,-0.2,2.5,1.5,-1.4,2.5,x
COC(=O)[C@@H]1CCCN1C(=O)CCc1nnc(C2CCCCC2)o1,0.72,0.1,1.3,-5.1,-0.8,2.9,i
Cc1ccc(-c2nc3cnccn3c2Nc2ccc3c(c2)OCO3)o1,0.719,2.6,x,15.5,3.8,-9.0,i
Fc1ccccc1-c1n[nH]c(=S)n1Cc1ccccc1,0.632,-0.1,63.8,1.9,5.2,0.4,x
COC(=O)[C@@]12CCCN1[C@H](c1ccc(-c3ccc(F)cc3)c(OC)c1)[C@H]1C(=O)N(C)C(=O)[C@H]12,x,0.3,-0.6,-10.6,-2.4,1.5,i
CC(OC(=O)c1cccs1)C(=O)NC1CC1 (stereo unspecified),0.707,0.8,-0.3,-6.9,-0.2,0.8,i
C#CCOCCOCCOCCNc1nc(N2CCN(C(=O)[C@H](CCCCN)n3cc(CN)nn3)CC2)nc(N2CCN(C(=O)[C@H](CC(N)=O)n3cc(C(N)[C@H](C)CC)nn3)CC2)n1 (stereo partly specified),x,4.5,-0.8,-5.9,-1.3,1.3,i
CCC(CO)NC(=O)c1cc2c(s1)CCC2 (stereo unspecified),0.717,-3.0,-2.5,-0.5,0.8,1.5,x
O=C(c1cc2c(s1)CCCC2)N1CCN(S(=O)(=O)c2ccccc2)CC1,0.674,-3.3,1.7,-2.1,-4.4,1.7,i
O=C(NCC(O)c1ccc([N+](=O)[O-])cc1)C1CCCCC1 (stereo unspecified),0.664,0.3,-8.3,5.0,-0.2,-1.9,i
C=CCNc1nc(Cl)nc(Nc2cc(Cl)ccc2OC)n1,0.688,-3.0,-1.9,11.8,2.1,3.7,i
COc1ccc(CN(C(=O)c2snc(C(N)=O)c2N)C(C(=O)NC2CCCC2)c2ccc(OC)c(OC)c2)cc1 (stereo unspecified),x,2.4,x,-0.9,-6.6,x,i
Nc1c(N(Cc2ccco2)C(=O)c2cccc(F)c2)c(=O)[nH]c(=O)n1Cc1ccccc1,0.678,3.4,x,-4.5,x,-0.2,i
Cc1ccc(-c2nc(N)n(C(=O)c3cccs3)n2)cc1,0.734,-0.8,-2.6,-2.4,-0.1,1.0,x
COc1ccccc1NC(=O)Cc1ccc(-c2ccccc2)cc1,0.652,1.6,x,-15.1,1.8,1.5,i
Cc1nn(C)c(C)c1S(=O)(=O)NCc1cccs1,0.744,-0.6,-2.3,8.4,1.8,6.8,x
O=C(OCC(=O)N(CCc1ccccc1)Cc1ccccc1)c1ccccc1O,0.692,-1.4,u,-5.5,-3.5,5.6,i
COc1ccc(CCN2CC(C(=O)Nc3nccs3)CC2=O)cc1OC (stereo unspecified),x,2.4,-1.1,0.8,3.8,x,i
O=C(Nc1ccc(OC(F)(F)F)cc1)C1CC(=O)N(Cc2ccco2)C1 (stereo unspecified),0.666,4.2,6.6,-5.7,3.3,1.0,i
CC(C)Cc1cc(C(=O)Nc2cc(C(F)(F)F)ccc2Cl)no1,0.714,-1.8,-14.0,4.4,-1.6,-1.1,x
CN(CC(=O)Nc1ccc(Cl)cc1)C(=O)c1ccc(-n2cncn2)c([N+](=O)[O-])c1,0.671,1.9,-11.5,-8.9,2.0,-0.6,x
O=C(NC(Cc1ccc2c(c1)OCO2)C(=O)N1CCCC1C(=O)O)c1ccccc1 (stereo unspecified),0.658,1.8,-4.7,8.2,-9.5,1.7,i
COc1ccc(NC(=O)C(c2ccc(OC)cc2)N(C)C(=O)Cc2cccs2)cc1 (stereo unspecified),0.649,0.7,-6.0,2.1,-0.5,2.2,x
Cc1ccccc1NC(=S)NCCc1ccccc1,0.721,1.4,14.4,5.3,-0.9,3.2,x
O=C(CN1CCCCC1)Nc1ccccc1Oc1ccccc1,0.647,5.1,1.0,1.9,-0.1,0.4,i
COc1cccc(N2[C@@H](CC(=O)O)c3ccc(/C=C/C(=O)O)cc3S2(=O)=O)c1,x,-31.8,x,-12.0,2.1,-1.3,i
C=CC[C@@H](Cc1ccc(F)cc1)C(=O)OC[C@H]1CCCN1C(=O)[C@H](CC=C)CC(=O)N(CCO)Cc1ccccc1,0.699,-0.1,x,-0.4,x,1.1,i
Cc1nc(C)n(C(C)CNS(=O)(=O)c2ccc(C)c(C)c2)n1 (stereo unspecified),0.663,3.4,0.2,6.6,-0.8,0.8,i

# (listing goes on)
SMILES,E coli growth,HNF4A DNA FP,ALR H2O2 inh,Beta2AR agonist,LANA-H2B inh,UCH37 inh,FGF22 binding
C[C@H](CO)N1C[C@H](C)[C@@H](CN(C)C(=O)Nc2ccc3c(c2)OCO3)Oc2c(NC(=O)C3CCCCC3)cccc2C1=O,x,-0.5,2.8,-3.0,4.1,3.9,i
CCCCOc1ncnc2c1[nH]c1ccccc12,0.677,0.9,-6.6,2.8,3.7,-9.6,x
CCSc1ccc([C@@H]2[C@H]3C(=O)N(C)C(=O)[C@H]3[C@]3(C(=O)OC)CCCCN23)cc1OC,x,3.3,x,-0.6,4.0,0.7,i
CNc1ccc(C(=O)OCC(=O)NC(=O)NC2CCCCC2)cc1[N+](=O)[O-],0.69,0.5,7.4,-7.5,2.2,6.9,i
COc1cc(/C=C(/NC(=O)c2ccccc2)C(=O)Nc2cccc(O)c2)c([N+](=O)[O-])cc1OC,0.699,0.5,1.8,-4.7,2.0,6.2,i
O=C1OCCN1C(=O)[C@H]1[C@H](c2ccccc2)C(c2cccc(Cl)c2)=NN1c1ccc(Br)cc1,0.7,3.2,x,-0.3,x,i,i
COc1cc(-c2nc(CN3CCCCC3CCNC(C)=O)c(C)o2)ccc1F (stereo unspecified),0.711,-3.0,-0.7,4.3,2.6,-0.6,i
COc1ccc(/C=C2/N=C(SC3CCOC3=O)N(c3cccc(OC)c3)C2=O)cc1 (stereo unspecified),0.757,1.8,-15.6,0.5,-1.4,2.5,i
CSc1ccccc1C(=O)OCC(=O)NCCN1C(=O)CSC1=O,0.701,2.5,-0.9,-4.0,-1.2,1.8,i
CCc1ccc(S(=O)(=O)NCCc2cn3ccccc3n2)s1,0.711,2.9,-7.4,-2.9,5.6,2.1,x
O=C(NCC1CCCO1)c1cc(S(=O)(=O)N2CCOCC2)c(Cl)cc1Cl (stereo unspecified),0.713,-1.2,x,10.9,x,1.6,i
CCc1ccc(N2C(=O)c3sc4nnc(-c5ccccc5)c(=O)n4c3C2=O)cc1,0.759,-0.2,x,6.8,5.4,2.7,x
CCC(C)[C@H](NC(=O)[C@@H]1CSC2c3ccccc3C(=O)N21)C(=O)N1CCCCC1 (stereo partly specified),0.706,-0.7,-0.7,0.2,2.5,6.2,i
O=C(NCc1ccc2[nH]c3c(c2c1)CCCC3)c1ccc(S(=O)(=O)N2CCCC2)cc1,0.751,0.2,-24.6,-0.5,-2.1,4.1,i
COc1ccccc1C(=O)n1nc(-c2ccc(Cl)cc2)nc1N,0.76,1.0,x,-2.9,-5.2,3.2,x
COC(=O)CNC(=O)c1c(C)cc(=O)oc1C,0.669,1.7,-7.6,-0.1,-4.2,3.6,x
CCOC(=O)CSc1nnnn1-c1cc(OC)c(Cl)cc1OC,0.733,2.2,-3.5,6.8,4.5,1.0,x
CCCCn1c(SCC(=O)Nc2nnc(CC)s2)nc2ccccc2c1=O,0.721,1.6,1.1,-5.2,-1.2,3.9,x
COc1ccc(C(=O)NC2CCC(O)CC2)cc1S(=O)(=O)NCc1ccc(Cl)cc1 (stereo unspecified),0.678,1.2,-1.4,5.8,5.9,0.8,i
CC(C)c1ccc(C(O)P(=O)(OCc2ccccc2)c2ccc(N(C)C)cc2)cc1 (stereo unspecified),0.63,0.6,-1.3,-2.8,2.8,5.6,i
Cc1c(NC(=O)CSc2ccccc2C(=O)Nc2cccnc2)c(=O)n(-c2ccccc2)n1C,0.76,-1.6,0.8,-10.5,2.3,2.5,x
Cc1cccc(C)c1NC(=O)CSc1nnc(-c2ccncc2)n1Cc1ccco1,0.64,-0.8,-3.9,3.0,-4.5,0.0,i
O=C1NC[C@H](Cc2ccccc2)N(CC2CCN(CCC34CC5CC(CC(C5)C3)C4)CC2)C1=O,x,2.8,x,12.7,x,x,i
CCC(=O)N1CCc2cc(S(=O)(=O)N(C)c3ccc(Br)cc3)ccc21,0.677,0.0,x,-15.3,x,2.0,i
